Source: PubChem BioAssay
Sa helicase inh: blocks Staphylococcus aureus DNA helicase; purified S. aureus helicase, fluorescence unwinding assay; about half of the hits fall short of the stated cut; inhibition, %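 (tested at about 80 µM)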; 0.05% of 120,000 active; AID 485395;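 active means both duplicates at 50% or more, or one of them with a favoured structure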;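 further: 0% = mean of negative control wells and 100% = mean of positive control wells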
MgrA-DNA mod: alters Staphylococcus aureus MgrA binding to DNA; fluorescence polarization; inhibition, %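 (about 10 µg/mL by stock and volumes)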; 0.13% of 84,000 active; AID 602314;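 active means above 50% in either of two replicates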;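 further: 0% = protein plus DNA without compound and 100% = DNA alone without protein; higher means less MgrA bound to DNA so lower polarization; one replicate is shown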
* = called active by the depositor; nt = not tested or not shown. Not all compounds are listed; count on the stated rates, not on these rows.

The line under a structure holds: Sa helicase inh	MgrA-DNA mod
Cc1ccc2c(c1)CCCN2C(=S)Nc1cccc(Cl)c1
    nt	-0.1
CSc1nc(-c2ccc(Cl)cc2)nc(SC)c1Cl
    nt	3.6
CC(C)(C)n1ncc2c(=O)n(CC(=O)c3ccccc3)cnc21
    16	0.9
NC(=O)C1CC(=O)N(CCc2ccc(F)cc2)C1 (stereo unspecified)
    0	3.6
O=C(C1CC1)N1CCc2cc(S(=O)(=O)Nc3ccc(Cl)cc3)ccc21
    -22	nt
O=c1c2ccccc2[nH]c(=S)n1CC1COc2ccccc2O1 (stereo unspecified)
    4	0.0
Cc1ccc2nc(NC(=O)c3nc(-c4ccccc4)oc3C)sc2c1
    -1	nt
Cc1cc(=O)n2[nH]cnc2n1
    -14	0.4
COc1ccc(-n2c(=O)c3c4c(sc3n3cnnc23)COC(C(C)C)C4)cc1 (stereo unspecified)
    -18	0.0
CCOc1ccc(N2CC(c3nc4ccccc4n3Cc3ccc(F)cc3)CC2=O)cc1 (stereo unspecified)
    -2	0.7
N#C/C(=C/c1ccccc1)C(=O)NCc1ccccc1
    13	nt
CCOc1ccc(-c2c(C)[nH]n3c(=O)c(N4CCc5ccccc5C4)c(C)nc23)cc1OCC
    0	nt
COC(=O)CC1C(=O)NCCN1C(=O)OC(C)(C)C (stereo unspecified)
    16	0.2
O=C(C1CC1)N1CCN=C1SCc1ccccc1
    12	1.2
O=c1cc(CNC(c2ccccc2)c2ccccc2)nc2sccn12
    -9	nt
CCOC(=S)Nc1cccc2ccccc12
    nt	0.9
CCOC(=O)c1ccc(NC(=O)/C=C/c2cccc(C(F)(F)F)c2)s1
    2	-1.1
CS/C(NCC1CC1)=C(/C#N)C(=O)c1ccc(Cl)cc1
    nt	-0.5
O=C(CSC1CCCC1)c1ccccc1Br
    25	1.4
COC(=O)CSc1nnc(CNC(=O)Cc2ccccc2)n1C
    11	0.3

The list continues:
The line under a structure holds: Sa helicase inh	MgrA-DNA mod
CC(NC1CCOC(C)(C)C1)c1ccccc1 (stereo unspecified)
    10	nt
O=S(=O)(c1ccccc1)N1CCC(O)(c2ccccc2)C2CCCCC21 (stereo unspecified)
    8	-1.1
CN(CC(O)Cn1c2ccccc2c2ccccc21)S(=O)(=O)c1ccc(Cl)cc1 (stereo unspecified)
    -11	0.7
CC(C)(C)C(=O)Oc1ccc(Br)cc1
    -7	0.6
C=CCn1c(=O)[nH]c2nc3cc(NC(=O)CC)ccc3nc2c1=O
    -92	nt
CC(C)CC(C(=O)NC1CCCCC1C)N1C(=O)c2ccccc2C1=O (stereo unspecified)
    9	nt
CCc1cc(=O)oc2c(OC(C)=O)c(OC(C)=O)ccc12
    7	8.8
CCOC(=O)N1CCC(NC(=O)Cn2ncc3ccccc32)CC1
    -20	nt
Cc1cccc(OCc2nnc(SCc3nc4ccccc4nc3C)o2)c1
    -19	nt
NC(=O)c1sc2nc3c(cc2c1N)CCCC3
    25	nt
Cn1c(=O)[nH]c(=O)c2c1[nH]c(=S)n2Cc1cccc(Br)c1
    nt	-0.6
C=CCn1c(C(C)NC(=O)C(C)(C)C)nc2ccccc21 (stereo unspecified)
    -9	nt
COc1cc(CC(=O)N2CCN(C(=O)C3CCCO3)CC2)cc(OC)c1OC (stereo unspecified)
    7	nt
N#CC(Cc1ccccc1)Sc1nnc2sc3ccccc3n12 (stereo unspecified)
    13	nt
CN=C1SC(CC(=O)Nc2ccc(F)cc2F)C(=O)N1/N=C(\C)c1cccc(-n2cnnn2)c1 (stereo unspecified)
    -2	nt
O=C1OC(C(=O)NCc2ccccc2)Cc2ccccc21 (stereo unspecified)
    2	nt
CCc1ccc(NC(=O)c2cnc(N3CCN(c4ccccn4)CC3)c3ccccc23)cc1
    -15	nt
Cc1cc(NC(=O)c2ccc(Cl)cc2)n(-c2nc3ccccc3s2)n1
    -8	-0.2
Cc1sc2nc(SCCC(C)C)nc(N)c2c1C
    2	1.1
O=C1CCCN1c1ccc(S(=O)(=O)NCCOc2ccccc2Cl)cc1
    -8	1.9

Further records:
The line under a structure holds: Sa helicase inh	MgrA-DNA mod
Cc1cc2nc(C(F)(F)F)cc(=O)n2[nH]1
    nt	1.6
CCn1c(O)c(C=Nc2ccc3[nH]ncc3c2)c(=O)n(CC)c1=S
    -6	nt
COc1ccc(C2Nc3ccccc3NC3=C2C(=O)CC(C)(C)C3)cc1COc1ccc(F)cc1 (stereo unspecified)
    nt	-3.3
Cc1ccsc1CCNS(=O)(=O)c1ccc(CN2C(=O)c3cccnc3C2=O)s1
    -27	nt
CCOC(=O)c1sc(N(Cc2ccccc2)C(=O)CSc2nnc3n2CCCCC3)nc1C
    11	nt
CCOc1ccc2nc(Cl)c(CN(Cc3ccco3)C(C)=O)cc2c1
    -5	4.2
CCn1c(-c2cccc(Br)c2)nc2ccccc21
    17	nt
COc1cc(C(=O)NCCOc2ccc(C)c(C)c2)cc(OC)c1OC
    7	-0.6
CC1(C)Cc2cccc(OC(=O)c3cncc(Br)c3)c2O1
    -21	0.6
O=C(Nc1ccc(Cl)cc1)c1ccc(CSc2ncccn2)cc1
    -9	0.2
Cc1ccc(NC(=O)CSCc2n[nH]c(=O)[nH]2)c(Br)c1
    7	-0.1
CCOC(=O)C1CCN(C(=O)CSc2nnc(-c3ccc(C)cc3)n2N)CC1
    -4	nt
C=CC1CCC(O)C(N(C)C(=S)Nc2ccccc2)C1 (stereo unspecified)
    4	-0.9
CCOC(=O)c1sc2cccc(Cl)c2c1N
    nt	-1.9
Cc1cc2n(n1)C(c1cccc(O)c1O)Nc1c(C)cccc1-2 (stereo unspecified)
    9	0.5
CN1C(=O)/C(=c2\sc3nc4ccccc4n3c2=O)c2ccccc21
    21	nt
Cc1cc(-c2nnc(-c3cccc(C(F)(F)F)c3)o2)no1
    nt	-1.8
CC1CCCC(NC(=O)c2cccc3c2SCCC3=O)C1C (stereo unspecified)
    31	nt
CCCN(CCC)Cc1ccc(CNc2nc(-c3ccc(OC)cc3)no2)o1
    8	nt
CC(C)Nc1nc(-c2cccs2)cc(C(F)(F)F)c1C#N
    nt	-0.8

Complete entries, looked up by structure.
CCOC(=O)C1CCN(C(=O)CSc2nnc(-c3ccc(C)cc3)n2N)CC1 is listed as Sa helicase inh = -4; MgrA-DNA mod = nt
COc1cc(C(=O)NCCOc2ccc(C)c(C)c2)cc(OC)c1OC is listed as Sa helicase inh = 7; MgrA-DNA mod = -0.6

Four compounds picked at random from those above, as already listed:
The line under a structure holds: Sa helicase inh	MgrA-DNA mod
Cc1ccsc1CCNS(=O)(=O)c1ccc(CN2C(=O)c3cccnc3C2=O)s1
    -27	nt
Cc1cc2nc(C(F)(F)F)cc(=O)n2[nH]1
    nt	1.6
Cc1ccc(NC(=O)CSCc2n[nH]c(=O)[nH]2)c(Br)c1
    7	-0.1
CCn1c(-c2cccc(Br)c2)nc2ccccc21
    17	nt

(cont.)
The line under a structure holds: Sa helicase inh	MgrA-DNA mod
C(=N/n1cnnc1)/c1cccc2c1OCCCO2
    -2	-1.1
C1=CC(c2cccs2)CC1 (stereo unspecified)
    -14	12
Cc1cc(C(=O)NC2CCCC(C)C2C)n(-c2ccccc2)n1 (stereo unspecified)
    6	-0.7
O=C(O)c1ccc2n[nH]nc2c1
    nt	2.5
O=C(C1=NN(C2CCS(=O)(=O)C2)C(=O)CC1)N1CCc2ccccc2C1 (stereo unspecified)
    -10	nt
CC(=O)n1ccc(C(=O)Nc2ccc(Cl)c(Cl)c2)n1
    1	nt
CC(C)c1ccc(-c2nc(N3CCCCCC3)[nH]c(=O)c2C#N)cc1
    12	nt
CCN(C(=O)CCn1c(=O)sc2ccccc21)c1ccccc1
    9	-1.9
CC1CCc2c(sc(N)c2C(=O)OC(C)C)C1 (stereo unspecified)
    8	-1.3
O=C(O)c1cc(-c2ccc3c(c2)OCO3)on1
    10	nt
Cc1sc2nc(CN3CCCCC3)nc(Cl)c2c1C
    -4	nt
O=C1N=c2ccccc2=C1c1sc(=S)n(-c2ccccc2)c1O
    -4	nt
Cn1cnnc1SCc1c(Cl)cccc1Cl
    9	-0.3
Cn1c(/C(C#N)=C/C2CC=CCC2)nc2ccccc21 (stereo unspecified)
    3	1.0
N#CCCS(=O)(=O)c1ccc(-c2ccc(S(=O)(=O)CCC#N)cc2)cc1
    4	5.6
c1ccc(CN2CCN(C3CCNCC3)CC2)cc1
    3	5.3
O=C(CSc1nc2ccccc2c(=O)n1CCO)N(C1CCCCC1)C1CCCCC1
    -3	nt
CC(C)OC(=O)c1ccc(CN2C(=O)NC(CCc3ccccc3)C2=O)o1 (stereo unspecified)
    -2	nt
O=C1CCc2ccccc2N1Cc1ccccc1
    nt	-0.6
O=C(CC1SC(=Nc2ccccc2)N(c2ccccc2)C1=O)Nc1ccc(F)cc1 (stereo unspecified)
    nt	1.2

The list goes on.
The line under a structure holds: Sa helicase inh	MgrA-DNA mod
CCCNc1c2c(nc3ccccc13)CC(C)(C)CC2=O
    9	-4.0
O=C(O)CCCC(=O)N1CCc2cc(S(=O)(=O)N3CCc4ccccc43)ccc21
    16	nt
CN(C)c1ccc(NC(=O)C23CC4CC(C2)CC(n2cnc(Cl)n2)(C4)C3)cc1
    13	0.1
COc1ccc2cc(CN(Cc3cccnc3)Cc3nnnn3Cc3ccc(F)cc3)c(=O)[nH]c2c1
    1	-0.5
CCC(C)c1ccccc1NC(=O)N(C)C (stereo unspecified)
    7	7.8
Cc1[nH]c2cc(C(=O)O)ccc2c1CC(=O)O
    0	0.2
N#CCCn1cc(/C=c2\sc3nc4ccccc4n3c2=O)c(-c2ccc(F)cc2)n1
    4	nt
CCCCc1c(COC)[nH]c(=O)[nH]c1=O
    nt	0.6
CC1(C(=O)C[n+]2cccc(C(N)=O)c2)CCC(=O)O1 (stereo unspecified)
    8	-0.9
CN(CC(=O)Nc1ccc(F)c(F)c1F)C(=O)C1CCCCC1
    4	nt
COc1ccc(N2CCN(C(=O)CSc3nnc4c(C)cc5cc6c(cc5n34)OCCO6)CC2)cc1
    5	-0.7
O=C1c2ccccc2S(=O)(=O)N1Cc1cccc2ccccc12
    5	nt
CCc1ccc(-c2cc3c(=O)n(CC(=O)NCCN4CCOCC4)nc(C)n3n2)cc1
    6	-1.2
OCc1nc2ccccc2n1CN1CCN(Cc2cccs2)CC1
    -2	nt
COC(=O)C(CC(=O)c1cccs1)c1ccccc1 (stereo unspecified)
    nt	-4.2
O=c1cc(-c2ccccc2)[nH]c(=O)[nH]1
    nt	-1.3
CCOC(=O)COc1c(C#N)sc2c1c(=O)n(-c1ccccc1)c(=S)n2-c1ccccc1
    nt	1.4
CCOC(=O)COc1ccc(C2NC(C(=O)O)CS2)cc1OCC (stereo unspecified)
    28	nt
O=C(c1ccco1)N1CCN=C1SCc1ccccc1
    4	nt
C=CCN1C(=O)C(O)(c2cnc(N)s2)c2ccccc21 (stereo unspecified)
    -2	nt

Remaining list, next part
The line under a structure holds: Sa helicase inh	MgrA-DNA mod
Nc1nc(O)c(C2=c3cc(Br)ccc3=NC2=O)s1
    -12	nt
O=C(CSCCS(=O)(=O)c1ccccc1)N/N=C/c1ccsc1
    nt	3.2
O=C(c1ccccc1)n1nc(-c2ccccc2)nc1NCc1ccco1
    17	0.4
CNC(=O)CC1SC(N)=NC1=O (stereo unspecified)
    12	nt
C=CCn1c(SC/C(O)=C(\C#N)c2nc3ccccc3[nH]2)nc2ccccc2c1=O
    -5	nt
CC(=O)OC1CCC2CC1CCC2OC(C)=O (stereo unspecified)
    7	1.4
CC1=C(C(=O)OCCOc2ccccc2)C(c2cc3c(cc2Br)OCO3)NC(=O)N1C (stereo unspecified)
    nt	-0.4
COc1ccc(CN(C)Cc2cccc(S(=O)(=O)N(C)C)c2)c(OC)c1OC
    6	nt
Clc1ccc(-c2noc3ncnc(N4CCc5ccccc54)c23)cc1
    14	nt
COc1ccc(-c2noc(CCCC(=O)NC(C)C)n2)cc1
    -38	nt
OCC1(CO)CSC(Nc2ccc(I)cc2)=N1
    nt	2.4
COc1cc(S(=O)(=O)n2nnc3ccccc32)c(OC)cc1C
    2	5.0
CC(C)c1nnc(NC(=O)CSc2nc(-c3ccccc3)cc(=O)[nH]2)s1
    11	-4.5
N#Cc1ccccc1Sc1ccccc1C(=O)Nc1cc(Cl)ccc1-n1cncn1
    6	nt
O=C(CSc1ncn[nH]1)N1CCN(S(=O)(=O)c2ccccc2)CC1
    3	nt
CC(C)Cc1cc(C(=O)NCc2ccco2)no1
    -2	1.4
CCc1ccccc1NC(=S)N(CCC(C)C)C(C)c1ccco1 (stereo unspecified)
    3	nt
CCOC(=O)c1c(C)n(C)c2c1cc(O)c1c2c(-c2ccccc2)nn1-c1ccccc1
    nt	-2.3
CN(C)/C=C/C(=O)c1cccc(C(F)(F)F)c1
    19	nt
NNC(=O)c1ccc(Oc2cccc(C(F)(F)F)c2)nc1
    29	nt

Look-ups from above:
MgrA-DNA mod result of CCOC(=O)c1c(C)n(C)c2c1cc(O)c1c2c(-c2ccccc2)nn1-c1ccccc1 = -2.3
Sa helicase inh result of Nc1nc(O)c(C2=c3cc(Br)ccc3=NC2=O)s1 = -12
Sa helicase inh result of NNC(=O)c1ccc(Oc2cccc(C(F)(F)F)c2)nc1 = 29

(next part)
The line under a structure holds: Sa helicase inh	MgrA-DNA mod
N#C/C(=C1/NS(=O)(=O)c2ccccc21)c1nc2ccccc2[nH]1
    -19	nt
Cn1c(N)c(C(=O)COC(=O)c2cc(S(=O)(=O)N3CCOCC3)ccc2F)c(=O)n(C)c1=O
    -13	nt
Cc1nc2ccccc2n1C(=O)CCC(=O)O
    5	0.2
COc1ccc(Cc2n[nH]c(=S)n2NC(=O)Nc2ccc(C)cc2)cc1
    -6	nt
CC(=O)SCC(Cc1ccccc1)C(=O)NCC(=O)OCc1ccccc1 (stereo unspecified)
    nt	-4.5
Cc1cc(C)c2cc(C(=O)N(Cc3ccccc3)Cc3ccccn3)[nH]c2c1
    nt	-0.9
